RE007 growth inh = less growth of the S. pombe RE007 Vpr strain. S. pombe RE007 Vpr strain, BacTiter-Glo ATP luminescence, 24 h; control for the full effect not named in the record. Potency, µM (highest dose often 92.2 µM), for the others: at the highest dose activity change, negative = less growth. actives 0.21% (n = 360,000); active = well fitted falling curve with a large enough effect; inconclusive = small, poorly fitted or top-dose-only effect; inactive = no such curve, though single readings can be large or run the other way;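 note: nearly all actives have a fitted effect of over 50% in size; the assay follows cell death caused by Vpr and the record does not say whether a fall means rescue or toxicity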
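Fission yeast RE007 carrying one integrated HIV-1 vpr copy, seeded at OD 0.01 in PMG+AL medium with 23 nL pinned compound. Grown 24 h at 30 degrees; viability read by BacTiter-Glo luminescence after 5 min.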
StopGo reporter = FMDV 2A StopGo reporter, luciferase signal. human cells with a luciferase reporter of 2A StopGo recoding; control for the full effect not named in the record. Potency, µM (top dose mostly 57.9 µM), for inactives: at the top dose signal change, negative = less light. actives 1.2% (n = 410,000). AID 1159524; active = well fitted falling curve with a large enough effect; inconclusive = small, poorly fitted or top-dose-only effect; inactive = no such curve, though single readings can be large or run the other way; tested in HEK293T cells; note: nearly all actives have a fitted effect of over 45% in size; luciferase light after 4 h
An asterisk follows results filed as active; ? = inconclusive; [ ] = dose if it differs, or a comment. % is set by controls: 0 for no effect and ±100 for the full control effect; potency is the fitted concentration of half-maximal effect. These rows are one share of the data; rates above refer to the full screens.

CN(Cc1ccco1)C(=O)c1cccc(S(=O)(=O)N2CCN(Cc3ccccc3)CC2)c1
  RE007 growth inh = 2%	StopGo reporter = -23%

Cc1c(C(=O)NCc2cccc(Cl)c2)sc(=O)n1Cc1cccc(F)c1
  RE007 growth inh = 8%[18.4 µM]	StopGo reporter = -9%

Cn1c(N)nc(N)c(NC=O)c1=O
  RE007 growth inh = 7%[18.4 µM]	StopGo reporter = -18%

Cc1ccsc1C(=O)N1CCC1(C)C(=O)NCCC#N (stereo not drawn)
  RE007 growth inh = -6%[18.4 µM]	StopGo reporter = -14%

COc1ccc(Cl)cc1Cn1c(C)c(C(=O)NCc2ccc(F)cc2)sc1=O
  RE007 growth inh = 15%[18.4 µM]	StopGo reporter = -11%

Cc1c(C)c2cc(Cl)c(OCC(=O)Nc3ccccn3)cc2oc1=O
  RE007 growth inh = -8%	StopGo reporter = 0%

Cc1nccn1-c1ccc(NC(=O)[C@H]2O[C@@H](n3cnc4c(N)ncnc43)[C@H](O)[C@@H]2O)cc1
  RE007 growth inh = -2%	StopGo reporter = -15%

COc1cc(CN2C(=O)C(CCc3ccccc3)ON=C2c2cnccn2)cc(OC)c1 (stereo not drawn)
  RE007 growth inh = 95%[18.4 µM]	StopGo reporter = -17%

Cc1ccc(Cn2cc(CN3CC(N(C)C)CS3(=O)=O)nn2)cc1 (stereo not drawn)
  RE007 growth inh = -8%	StopGo reporter = -16%

Cc1cccc(CN2CCN(C3CN(Cc4cn(Cc5ccc(F)cc5)nn4)S(=O)(=O)C3)CC2)c1 (stereo not drawn)
  RE007 growth inh = -10%	StopGo reporter = -24%

CN(C)c1ncnc2c1ncn2[C@H]1CN(Cc2ccc(F)cc2)C[C@@H](CO)O1
  RE007 growth inh = -4%	StopGo reporter = 0%

O=C(COC(=O)C1CCC1)Nc1cc(S(=O)(=O)N2CCOCC2)ccc1Cl
  RE007 growth inh = 21%	StopGo reporter = -10%

OC[C@H]1O[C@H](OC[C@H]2OC(O)[C@H](O)[C@@H](O)[C@@H]2O)[C@H](O)[C@@H](O)[C@@H]1O (stereo partly drawn)
  RE007 growth inh = 5%[18.4 µM]	StopGo reporter = -13%

CCOC1=C2CN(S(=O)(=O)c3ccc(C)cc3)[C@H](c3cccc(Cl)c3)C[C@@H]2N(S(=O)(=O)c2ccccc2[N+](=O)[O-])[C@H](c2ccccc2)C1
  RE007 growth inh = 0%	StopGo reporter = -15%

CN1CCn2cnc(C(=O)Nc3ccc(CNC(=O)OC(C)(C)C)cc3)c2C1=O
  RE007 growth inh = -20%	StopGo reporter = -19%

C[C@H]1CNC(=O)c2c(C(=O)Nc3ccc(CNC(=O)OC(C)(C)C)cc3)ncn21
  RE007 growth inh = -3%	StopGo reporter = 28µM*

COC(=O)C[C@H]1c2cc(C(F)(F)F)ccc2S(=O)(=O)N1C(C)(C)C
  RE007 growth inh = -3%	StopGo reporter = 19%

CCC(C(=O)NC(C)(C)C)n1c(-c2ccc(C)cc2)nc2ccccc21 (stereo not drawn)
  RE007 growth inh = 18%	StopGo reporter = -22%

COc1cc(CNCCc2c[nH]c3ccccc23)cc(OC)c1OC
  RE007 growth inh = -21%	StopGo reporter = 0%

CCc1nc2c(OCc3ccc(C(=O)N(C)C)cc3)cccn2c1N(C=O)Cc1ccccc1
  RE007 growth inh = -15%	StopGo reporter = -20%

O=C1[C@H]2[C@@H](c3ccc(C(F)(F)F)cc3)N[C@]3(CCCN(Cc4ccccc4)C3=O)[C@H]2C(=O)N1Cc1ccccc1
  RE007 growth inh = 14%	StopGo reporter = -20%

C[C@@H]1CN([C@@H](C)CO)C(=O)c2cc(Br)cnc2O[C@H]1CN(C)C(=O)c1ccc2c(c1)OCO2
  RE007 growth inh = 1%	StopGo reporter = -18%

O=C(N/C=C/n1cnc2cc(C(F)(F)F)ccc21)c1ccc(F)cc1
  RE007 growth inh = 3%	StopGo reporter = -27%

COc1cccc(-c2cnc(C(O)c3ccc(Cl)cc3C)[nH]2)c1 (stereo not drawn)
  RE007 growth inh = -13%[18.4 µM]	StopGo reporter = 24%

Cc1noc(C)c1C(=O)OCC(=O)Nc1cccc(F)c1
  RE007 growth inh = -10%	StopGo reporter = -5%

O=C(NC(c1ccc(Cl)cc1)c1ccsc1)C1CCN(Cc2ccc(Oc3ccccc3)cc2)CC1 (stereo not drawn)
  RE007 growth inh = -27%[18.4 µM]	StopGo reporter = -22%

OC(c1ccc(F)cc1)c1nc(-c2cc3ccccc3o2)cs1 (stereo not drawn)
  RE007 growth inh = 7%[18.4 µM]	StopGo reporter = 47%[activator]

Cc1nc(NC(=O)C(C)(C)C)sc1C(=O)Cn1cc(CCCC#N)nn1
  RE007 growth inh = 4%	StopGo reporter = -21%

C=C(C)CNC(=O)C1CCC(=O)N(CCCc2ccccc2)C1 (stereo not drawn)
  RE007 growth inh = 7%	StopGo reporter = 2%

CCO/C(C)=N/Oc1cnc2ccccc2c1
  RE007 growth inh = 5%	StopGo reporter = 34%[activator]

CCCCNC(=O)C(NC(=O)c1ccc(=O)[nH]c1)C(=O)c1ccccc1 (stereo not drawn)
  RE007 growth inh = 25%	StopGo reporter = -8%

Cc1ccccc1S(=O)(=O)N1C[C@H]2CON(C)[C@H]2C[C@H]1c1cccc(Oc2ccccc2)c1
  RE007 growth inh = -2%	StopGo reporter = ?

O=C(/C=C/c1cccc([N+](=O)[O-])c1)OCC(=O)N1CCCCC1
  RE007 growth inh = 1%	StopGo reporter = 30%[activator]

COc1ccc(OC)c(NC(=O)C2(C)CCN2Cc2ccc(SC)cc2)c1 (stereo not drawn)
  RE007 growth inh = 0%[18.4 µM]	StopGo reporter = -12%

COC(=O)[C@]12CCCCC=C1N(CCc1ccc(OC)c(OC)c1)C(=O)[C@H](CC(=O)NCc1cccc(C(F)(F)F)c1)C2
  RE007 growth inh = 11%	StopGo reporter = -25%

CCCCCCCCN1C(=O)[C@H](CC(=O)NCc2cccc3ccccc23)C[C@@]2(C(=O)OCC)CCCC=C12
  RE007 growth inh = 54%	StopGo reporter = -23%

COc1ccccc1NC(=O)c1cc(N)cc(C(=O)Nc2ccccc2OC)c1
  RE007 growth inh = -2%	StopGo reporter = -25%

CCCCC[C@@H](/C=C/C1C(=O)C=C[C@H]1C/C=C\CCCC(=O)OC)OC(C)=O (stereo partly drawn)
  RE007 growth inh = -14%	StopGo reporter = 28µM*

CCNC(=O)C1(C)CCCN(Cc2ccc(-n3ccnc3)cc2)C1 (stereo not drawn)
  RE007 growth inh = -7%	StopGo reporter = 3%

CSc1ncnc2c1ncn2CCCNCCCN1CCCC1=O
  RE007 growth inh = -5%	StopGo reporter = 2%

Fc1cccc(-c2ccc3c(c2)CN(C(=S)NCCc2ccccc2)Cc2cnnn2-3)c1
  RE007 growth inh = 6%	StopGo reporter = 26%

CCOC(=O)N(C)c1c(CC)nc2c(OCc3cc(Cl)cc(Cl)c3)cccn12
  RE007 growth inh = 1%	StopGo reporter = -22%

COc1cc(-c2cc(NC=O)c3ncc(-c4ccc(F)cc4)n3c2)cc(OC)c1OC
  RE007 growth inh = -10%	StopGo reporter = ?

O=C(CCn1cccn1)N1CCCC(Nc2ccc(F)c(F)c2)C1 (stereo not drawn)
  RE007 growth inh = 16%	StopGo reporter = -29%

Cc1cccc(C)c1-n1nnnc1C1(C)CCC(=O)N1CCOc1ccccc1 (stereo not drawn)
  RE007 growth inh = 7%	StopGo reporter = -15%

CCN1CCN(c2nc3c(c(=O)[nH]c(=O)n3C)n2Cc2cccc(C)c2)CC1
  RE007 growth inh = 7%	StopGo reporter = -24%

CC(C)CN1C(=O)CSCC1(C)C(=O)NC(C)C (stereo not drawn)
  RE007 growth inh = 0%	StopGo reporter = -8%

Cc1ccc2c(c1)CCCO[C@]21O[C@H](CCO)C[C@H](O)[C@H]1O
  RE007 growth inh = 4%	StopGo reporter = -9%

CN1C(=O)CCS(=O)(=O)C1c1ccc(Cl)c(Cl)c1 (stereo not drawn)
  RE007 growth inh = 3%	StopGo reporter = ?

Cc1nc(C(=O)N2CCCC(N3CCN(c4ccc(F)cc4)CC3)C2)cs1 (stereo not drawn)
  RE007 growth inh = 5%	StopGo reporter = -23%

The listing continues:
| Molecule | RE007 growth inh | StopGo reporter |
| --- | --- | --- |
| CC1(C(=O)NS(=O)(=O)c2cccc(F)c2)CCN1C(=O)c1ccccc1 (stereo not drawn) | 10% | -11% |
| CCCS(=O)(=O)NC(=O)C1(C)CCN(C(=O)c2ccccc2C(F)(F)F)C1 (stereo not drawn) | 2% | -12% |
| CCc1nc2ccc(C(=O)Nc3ccc4c(c3)OCC(=O)N4)cn2c1N(CC)CCOC | -28%[18.4 µM] | -13% |
| CCN(CC(=O)Nc1c(F)cccc1F)C(=O)c1ccc(OC)c(S(=O)(=O)NC2CCCC2)c1 | -1% | 35%[activator] |
| Nc1ccccc1C#Cc1cnccn1 | 4% | 24% |
| Cc1ccsc1C(=O)N1CCC1(C)C(=O)NCC(C)(C)C (stereo not drawn) | 10% | -2% |
| CCOC(=O)[C@]12CCC=C1N(Cc1cccc3ccccc13)C(=O)[C@H](CC(=O)NCC13CC4CC(CC(C4)C1)C3)C2 | -17% | -8% |
| O=C(Nc1cccc(C(=O)O)c1)/C(=C\c1cccc([N+](=O)[O-])c1)NC(=O)c1ccc(Br)cc1 | 3% | 0% |
| O=C1NC[C@H](CCCCN2C[C@H](Cc3ccccc3)N(CCc3ccc(O)cc3)C(=O)C2=O)N(CC2CCCCC2)C1=O | 5% | -10% |
| O=C(Cc1cccc(NC(=O)C2CCCN(C(=O)C3CC3)C2)c1)Nc1cccc(C(=O)N2CCCCC2)c1 (stereo not drawn) | 6% | 1% |
| CCOC(=O)C1CCCN(C(=O)c2cc(C)oc2C)CC1 (stereo not drawn) | 3% | -21% |
| OC(c1cc(Cl)cc(Cl)c1)c1ncc(-c2cccc(F)c2)[nH]1 (stereo not drawn) | -22%[18.4 µM] | 31%[activator] |
| O=C(c1ccc(CS(=O)c2ccc(Br)cc2)o1)N1CCN(C2CCCCC2)CC1 (stereo not drawn) | -2% | -11% |
| CC(=O)C[C@@H]1OC2CCCCC2N1S(=O)(=O)c1ccc(C)cc1 (stereo partly drawn) | 4% | 0% |
| O=C(NCc1nc2ccccc2[nH]1)C1=C[C@H](C2CCCCC2)C[C@H](OCCCCO)O1 | -1% | -21% |
| COC(=O)/C=C1\OCc2cc(OC)c(OC)cc21 | 1% | -12% |
| O=C(Nc1ccc(C(=O)N2CCCCC2)cc1)[C@H]1O[C@@H](n2ccc(=O)[nH]c2=O)[C@H](O)[C@@H]1O | 7% | -9% |
| COCCn1c(N)c(N(Cc2ccccc2)C(=O)c2ccc(N3CCCC3=O)cc2)c(=O)[nH]c1=O | -3% | -5% |
| CCNC(=O)C1CCCN(Cc2cc(-c3ccccc3)on2)CC1 (stereo not drawn) | -8% | 0% |
| Cc1cc(C)cc(C(=O)NCC(=O)OCC(=O)N2CCCC2)c1 | 11% | 43%[activator] |
| COC(=O)[C@H](CC(C)C)NC(=O)CC[C@H]1O[C@@H](n2cc(C)c(=O)[nH]c2=O)C[C@@H]1O | -7% | -21% |
| COc1ccc(-c2cnc3c(NC(C)=O)cc(-c4cc(F)ccc4OC)cn23)cc1OC | 2%[18.4 µM] | -16% |
| Cc1cccc(OCC(=O)N2CCc3ccccc3C2)c1C | -17% | 17% |
| CCCNC(=O)N1[C@H]2CC[C@@H]1C(C(=O)OC)=C(c1ccc(S(C)(=O)=O)cc1)C2 | 6% | -24% |
| O=C(C1CC(=O)N(c2ccc(F)c(Cl)c2)C1)N1CCOCC1 (stereo not drawn) | -2% | 4% |
